High-throughput results (PubChem)
PKD1 inh = inhibitors of human PKD1 kinase. Q15139. PKD1 kinase fluorescence polarization assay. inhibition, %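 (about 10 µM by stock and volumes)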. hit rate 0.056% among 200,000. AID 797;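 active = inhibition of 50% or more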;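 also: controls were vehicle for no effect and a reference inhibitor for full effect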
RGS16-Gao HTS = modulates binding between human RGS16 and Galphao; binding response (% of control), % at 10 µM; O15492+P09471; bead-based flow cytometry RGS16-Galphao binding, fluorescence; actives lie on both sides; hit rate 0.38% among 220,000; AID 1441;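 active = below 25% or above 175%, edge rows of some plates excepted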;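 also: Galphao activated by GDP with aluminum fluoride before binding; 100% = wells without compound and 0% = beads without RGS; some results beyond the cut were filed as inactive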
Target sequence (O15492 whole entry, looked up): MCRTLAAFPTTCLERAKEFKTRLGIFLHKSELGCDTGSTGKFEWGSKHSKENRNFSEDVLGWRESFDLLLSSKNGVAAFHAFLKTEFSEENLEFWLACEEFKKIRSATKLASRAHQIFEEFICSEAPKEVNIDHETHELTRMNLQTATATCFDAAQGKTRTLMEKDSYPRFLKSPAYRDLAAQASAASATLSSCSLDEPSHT
Target sequence (P09471 whole entry, looked up): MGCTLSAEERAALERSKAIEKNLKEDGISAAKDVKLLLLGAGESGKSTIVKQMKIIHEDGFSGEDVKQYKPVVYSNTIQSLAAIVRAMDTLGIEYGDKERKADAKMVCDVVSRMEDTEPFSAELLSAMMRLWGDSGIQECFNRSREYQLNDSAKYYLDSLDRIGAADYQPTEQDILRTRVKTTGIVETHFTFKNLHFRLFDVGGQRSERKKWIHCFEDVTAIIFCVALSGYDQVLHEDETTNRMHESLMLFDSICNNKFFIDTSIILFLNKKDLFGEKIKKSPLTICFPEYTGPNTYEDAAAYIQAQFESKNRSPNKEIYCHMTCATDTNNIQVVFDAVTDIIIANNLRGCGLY
GALR2 ag = GALR2 (human) receptor agonism | GALR2-expressing cells, agonist activation read-out | AID 803 | activation, %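 (tested at 5 µM)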 | hit rate 0.48% among 140,000 | O43603;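 active = above mean plus 3 SD of all compounds, about 5% in these data, not always enough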;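 also: 0% = vehicle buffer wells and 100% = reference agonist at full effect; tested in CHO reporter cells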
Target sequence (O43603 whole entry, looked up): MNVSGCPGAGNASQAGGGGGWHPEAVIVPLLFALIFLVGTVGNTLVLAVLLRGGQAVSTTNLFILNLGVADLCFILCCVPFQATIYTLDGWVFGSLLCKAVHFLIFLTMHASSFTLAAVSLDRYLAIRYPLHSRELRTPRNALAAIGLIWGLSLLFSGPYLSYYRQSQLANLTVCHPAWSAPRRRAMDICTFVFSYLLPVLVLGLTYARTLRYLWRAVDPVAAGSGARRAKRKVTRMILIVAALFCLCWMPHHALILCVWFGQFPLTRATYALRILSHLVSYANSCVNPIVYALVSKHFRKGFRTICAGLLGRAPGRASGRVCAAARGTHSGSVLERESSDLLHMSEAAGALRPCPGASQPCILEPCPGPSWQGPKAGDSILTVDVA
INS promoter inh = TRM-6 insulin promoter activity inhibition; inhibition, % at 2 µM; AID 1273; TRM-6 cells (human fetal islet line), insulin promoter-eGFP reporter, imaging; reporter expression induced with tamoxifen; hit rate 0.9% among 130,000;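 active = inhibition above the mean plus 3 SD, with well images judged a real hit on visual review, cut at about 60% in these data, passing the limit was not always enough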
HSV augment = HSV replication enhancement; HSV replication augmentation in cells, fold increase; maximum fold increase; hit rate 0.005% among 220,000;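 active = peak rise of 1.5-fold or more in the series; tested in PC3 cells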;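 also: first round at 10 µM; read as green reporter fluorescence; hits show the peak of a series up to 25 µM; 1 = signal of infected wells without compound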
INS promoter inh cell count = further read-out of INS promoter inh, marked with its call; normalized cell count, %; measured here: cell count, toxicity; reference of the scale not given here;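 cells exposed to compound for 48 h; stained nuclei by imaging scaled within each plate; lower means fewer cells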
HSV augment primary fold = recorded beside HSV augment, whose call it bears; fold increase; compound at 10 µM; measured here: primary screen fold increase 10 uM; tested in PC3 cells;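 GFP signal in the first replicate; 1 = infected wells without compound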
Active calls of the source: *; i = inactive; . = not tested or not shown. Compounds were not picked by outcome, and some 1.3% of all compounds hit somewhere here.

Order of results: PKD1 inh	RGS16-Gao HTS	GALR2 ag	INS promoter inh	INS promoter inh cell count	HSV augment	HSV augment primary fold
- O=C(O)CC(NC(=O)C(c1ccccc1)c1ccccc1)c1ccc(F)cc1 (centres undefined)
 : -3	97	.	.	.	i	1.1
- COc1ccc(OCC(=O)c2c(O)c3ccccc3oc2=O)cc1
 : 6	99	-3.1	27	105	i	0.94
- CCOC(=O)C1CCN(C(=O)CSC2=NCCS2)CC1
 : -8	106	-1.5	.	.	.	.
- Cc1cccc(-n2nc3c(c2NC(=O)c2ccco2)CS(=O)(=O)C3)c1C
 : -6	104	.	-50	152	i	0.96
- Cc1cc(N/N=C/c2ccc(O)cc2O)nc(N2CCOCC2)n1
 : .	98	.	.	.	i	0.85
- CC(=O)c1ccc(NC(=O)Nc2ccc(Cl)cc2)cc1
 : 2	99	-1.3	40	144	i	0.98
- COc1ccc(/C=C/C(=O)c2ccc3ccccc3c2O)cc1CN1CCOCC1
 : -9	120	-0.3	-3	73	i	0.78
- Nc1ccc(CNc2ncn[nH]2)cc1
 : .	101	.	.	.	i	0.89
- COc1ccc(-c2noc(CCC(=O)NC3CCCCC3)n2)cc1OC
 : 34	104	-3.2	13	101	i	0.93
- COc1ccccc1NC(=O)CSc1ncn(-c2ccccc2)n1
 : -2	126	0.0	33	71	i	0.87
- O=C1COc2ccc(C(=O)c3ccccc3C(=O)O)cc2N1
 : -5	118	-0.5	-29	96	i	1
- COc1ccc(OC(C)C(=O)NCCc2nc3ccccc3[nH]2)cc1 (centres undefined)
 : -6	98	-1.7	-7	130	i	0.94
- Cc1cccc(C)c1OC(=O)CN(c1ccc(Cl)cc1)S(C)(=O)=O
 : -13	100	-1.3	.	.	i	1
- CN(C)c1c2ccccc2nc2c(F)c(F)c(F)c(F)c12
 : 6	104	.	0	92	i	0.79
- CCSc1nc(=S)n(Cc2ccccc2)c(C)c1C(C)=O
 : -2	103	0.2	-42	112	.	.
- Cc1cc(NC(=O)CSc2nc(-c3ccccc3)cs2)no1
 : -1	.	-1.8	-103	172	i	0.96
- O=c1[nH]c(/C=C/c2cccnc2)c([N+](=O)[O-])c(=O)[nH]1
 : 7	97	.	.	.	i	1
- COc1ccccc1NC(NC(=O)c1cccnc1)C(Cl)(Cl)Cl (centres undefined)
 : 1	91	.	.	.	i	0.94
- Cc1cc(C(=O)NNC(=O)c2nn(C)c(=O)c3ccccc23)c(C)o1
 : 1	108	.	.	.	i	0.96
- O=C(COC(=O)/C=C/c1cccc(Cl)c1)Nc1ccccc1-c1ccccc1
 : -8	100	-0.6	0	71	i	0.99
- CC(C)(C)NC(=O)NC(=O)CN1CCC(Cc2ccccc2)CC1
 : -4	98	.	61	121	i	1
- COc1cc2c(C#N)c(N3CCOCC3)nc(N)c2c(N)n1
 : 0	102	1.8	-28	109	i	0.95
- O=C(Nc1ccc(CN2CCS(=O)(=O)CC2)cc1)c1ccc(F)cc1
 : .	99	.	.	.	i	0.81
- COC(=O)c1c(C)oc2c1cc(NS(=O)(=O)c1cccs1)c1ccccc12
 : -8	106	-1.2	0	133	i	0.98
- O=C(c1cc(-c2ccccc2)nc2ccccc12)N1CCCc2ccccc21
 : -12	104	0.4	0	152	i	1.1
- CCNC(=S)N1CCN(CCN=CC2=C(O)CC(c3ccco3)CC2=O)CC1 (centres undefined)
 : 1	104	-2.9	3	116	i	0.86
- CCCS(=O)(=O)C(=C1NCCO1)S(=O)(=O)CCC
 : -1	110	-0.9	-73	121	i	0.95
- Cc1nnc(C)n1/N=C/C=C/c1ccccc1
 : 16	67	0.7	.	.	i	0.87
- CC(C)N(C(=O)CC1ON(C)C(=O)N1c1ccc(Cl)cc1)C(C)C (centres undefined)
 : 1	101	.	-20	108	i	0.96
- O=C(O)CCC(=O)NCC(=O)c1ccc(F)cc1
 : .	99	.	.	.	i	0.97
- N=c1c(C(=O)NC2CCCC2)cc2c(=O)n3ccccc3nc2n1C1CCCC1
 : 9	98	2.5	0	166	i	0.71
- CCNC(=O)NC(=O)COC(=O)c1ccccc1SCC(=O)NC(=O)NCC
 : 8	92	0.9	.	.	i	1.1
- O=C(Nc1ccccc1Cl)c1ccc2c(c1)N(Cc1ccc(F)cc1)C(=O)CS2=O (centres undefined)
 : -3	96	-0.7	-5	131	.	.
- COc1ccccc1C(=O)N1CCN(C(=O)COc2cccc(C)c2)CC1
 : 3	103	-0.8	-26	132	i	1.1
- CCCOC(=O)Nc1ccccc1C(N)=O
 : 4	107	-0.1	.	.	i	1
- CC(=O)NCCn1c(SCc2cc(F)ccc2F)nc2ccccc2c1=O
 : -3	102	-3.4	31	57	i	0.8
- C/C(=N\Nc1nccnc1Cl)c1ccc([N+](=O)[O-])cc1
 : -13	99	-1.7	.	.	i	0.89
- COc1ccc(/C=N/NC(=S)Nc2cccc(C(=O)O)c2)cc1OC
 : 1	101	0.8	-16	145	i	1.1
- CC1(C)OC(c2ccccc2)=C/C(=C/C=C2C(=O)c3ccccc3C2=O)O1
 : 2	97	.	-88	65	i	1.3
- COc1ccc2nc(NC(=O)c3ccc(NS(=O)(=O)c4cccs4)cc3)sc2c1
 : -8	79	-1.8	-13	103	i	0.81

Part of the list above, reformatted.
> COc1ccc(/C=N/NC(=S)Nc2cccc(C(=O)O)c2)cc1OC
  PKD1 inh = 1
  RGS16-Gao HTS = 101
  GALR2 ag = 0.8
  INS promoter inh = -16
  INS promoter inh cell count = 145
  HSV augment = i
  HSV augment primary fold = 1.1

> CC(=O)c1ccc(NC(=O)Nc2ccc(Cl)cc2)cc1
  PKD1 inh = 2
  RGS16-Gao HTS = 99
  GALR2 ag = -1.3
  INS promoter inh = 40
  INS promoter inh cell count = 144
  HSV augment = i
  HSV augment primary fold = 0.98

Later entries.
Order of results: PKD1 inh	RGS16-Gao HTS	GALR2 ag	INS promoter inh	INS promoter inh cell count	HSV augment	HSV augment primary fold
- CC1CCc2nn(CC(=O)NCc3ccc(F)cc3)cc2C1 (centres undefined)
 : -18	103	-0.7	.	.	i	0.84
- Cc1cccc(N2CCN(C(=O)c3ccc(CNc4c(N5CCC(C)CC5)c(=O)c4=O)cc3)CC2)c1C
 : -4	99	.	-25	92	i	0.89
- CN(CC(=O)Nc1ccc(N2CCOCC2)cc1)Cc1cc(=O)n2ccsc2n1
 : 0	107	.	64	111	i	1.1
- COc1ccc(OC)c(Cc2nnc(CCC(=O)NCc3ccsc3)o2)c1
 : -9	96	.	.	.	i	1
- CCOc1ccccc1N/C=C/C(=O)C(C)(C)C
 : -3	100	-2.4	6	102	i	0.8
- COc1cc(/C=C/c2nc3ccc([N+](=O)[O-])cc3s2)ccc1OCC(=O)O
 : .	99	.	.	.	i	1
- CCOC(=O)C1(C)NC(c2ccco2)C2C(=O)N(c3ccccc3)C(=O)C21 (centres undefined)
 : -2	109	.	0	109	i	0.93
- Clc1cccc(N2CCN(Cc3nnc(-c4ccccc4)o3)CC2)c1
 : -4	104	.	.	.	i	0.98
- COC(=O)c1scc(C)c1NC(=O)C(Cl)c1ccccc1 (centres undefined)
 : 2	103	.	.	.	i	1
- Cc1ccc(-c2nnc(CSc3nncn3N)o2)cc1
 : -2	99	-2.0	-77	140	i	0.83

Some entries already given, limited to RGS16-Gao HTS.
canonical_smiles	RGS16-Gao HTS
CN(CC(=O)Nc1ccc(N2CCOCC2)cc1)Cc1cc(=O)n2ccsc2n1	107
COc1ccc(OC)c(Cc2nnc(CCC(=O)NCc3ccsc3)o2)c1	96
CCOc1ccccc1N/C=C/C(=O)C(C)(C)C	100
COc1cc(/C=C/c2nc3ccc([N+](=O)[O-])cc3s2)ccc1OCC(=O)O	99
CCOC(=O)C1(C)NC(c2ccco2)C2C(=O)N(c3ccccc3)C(=O)C21 (centres undefined)	109
Clc1cccc(N2CCN(Cc3nnc(-c4ccccc4)o3)CC2)c1	104

Continuation.
Order of results: PKD1 inh	RGS16-Gao HTS	GALR2 ag	INS promoter inh	INS promoter inh cell count	HSV augment	HSV augment primary fold
- CC1CN(C(=O)c2ccccc2)OC(c2ccc3c(c2)OCO3)O1 (centres undefined)
 : -4	103	-0.9	.	.	i	1.2
- COc1ccc(C2(C(=O)O)CCCC2)cc1
 : -5	100	-2.5	-14	99	i	1.2
- Cc1ccnc(NS(=O)(=O)c2ccc(NC(=O)CN3C(=O)CCC3=O)cc2)n1
 : -2	100	.	29	119	i	0.9
- Cc1cc(=O)[nH]c(N2CCc3ccccc3C2)n1
 : -9	107	-1.5	.	.	i	1
- O=C(CSc1ccccn1)NC1CCCC1
 : -1	103	.	-8	83	i	0.96
- CCCCNC(=S)NNC(=O)c1ccc2c(c1)OCO2
 : 1	103	0.5	.	.	i	0.97
- Cc1ccc2c(c1)c(N=Nc1cccc(C(=O)O)c1)c(O)n2C
 : 14	98	.	.	.	i	0.8
- O=[N+]([O-])c1cc(S(=O)(=O)N2CCCC2)ccc1SCCO
 : 0	104	.	-127	87	i	1
- CCN(CC)CCNc1nc2c(c(=O)[nH]c(=O)n2C)n1CC(O)COc1ccc(Cl)cc1Cl (centres undefined)
 : -9	103	-0.4	-23	127	i	0.91
- O=C(Nc1nccs1)C1CCN(S(=O)(=O)c2cccs2)CC1
 : 0	104	.	-11	80	i	1.1
- COC(=O)c1ccc(COc2ccccc2/C=C(\C#N)C(=O)Nc2ccc(C)cc2)cc1
 : -1	103	-1.8	27	64	i	0.77
- O=C1C=C(Nc2ccccc2)C(=O)c2ccccc21
 : -1	102	.	.	.	i	0.9
- CCOC(=O)c1c(NC(=O)Nc2ccccc2)sc(C)c1C
 : -2	96	-1.7	14	140	i	0.88
- Cc1c(CN2CCC(C)CC2)c(=O)n(-c2ccccc2)n1C
 : 3	104	-3.6	.	.	i	0.66
- CSc1nc2c(cc1C#N)CCCCC2
 : -12	104	-1.3	26	76	i	1.1
- COc1ccc(S(=O)(=O)N(C)C)cc1NCC(=O)Nc1cccc(C#N)c1
 : 0	101	.	-18	117	i	0.98
- COc1cc(C(C)=O)ccc1COc1ccc(C(=O)OCC(=O)NC2CCS(=O)(=O)C2)cc1OC (centres undefined)
 : -7	92	-2.4	49	80	i	1.2
- N/C(=N\OC(=O)c1ccc2c(c1)OCO2)c1cccc(Br)c1
 : -4	102	.	.	.	i	0.88
- O=c1cc(CN2CCN(c3ccccc3)CC2)c2cc(O)c(-c3ccccc3)cc2o1
 : -4	98	-1.0	55	100	i	0.68
- CCn1c(=O)c(C(=O)Nc2ccccc2C)c(O)c2ccccc21
 : -2	107	-1.7	71	95	i	1.2
- C[C@@H]1NC(=O)c2cc([N+](=O)[O-])cc(I)c2OCC[C@@H](C(=O)NC(CC(=O)O)C(N)=O)NC(=O)[C@H](CCC(=O)O)NC1=O (some centres undefined)
 : -3	109	-0.7	5	134	i	0.88
- COc1ccc(C2CC(=O)N(c3ccccc3)C3=C2C(=O)CCC3)cc1 (centres undefined)
 : .	103	.	.	.	i	0.94
- C=CCNCCCCOc1ccccc1-c1ccccc1
 : 11	108	-0.5	-23	162	i	0.9
- c1ccc2c(c1)nc(N1CCOCC1)c1c3ccccc3[nH]c21
 : 50	101	1.7	.	.	i	0.75
- CC12CC(NC(=O)N1Cc1ccccc1)c1ccccc1O2 (centres undefined)
 : -14	103	-2.1	.	.	i	0.83
- Cn1c(=O)c2c(nc(Br)n2CCSc2ncccn2)n(C)c1=O
 : -2	100	-0.2	17	88	i	1
- Cc1ccc(OCC(=O)NCc2ccco2)cc1C
 : -7	102	-0.5	56	125	i	0.93
- COc1ccc(-c2nc3c(c4nnc(SC(C)C(=O)Nc5ccccc5)n24)COC(C)(C)C3)cc1 (centres undefined)
 : -13	153	0.4	6	87	i	0.95
- CN1CCN(c2nc(-c3cccs3)cs2)CC1
 : 0	97	.	.	.	i	1.1
- CCOC(=O)c1c(NC(=O)CSc2ncnc3[nH]ncc23)sc2c1CCC(C)C2 (centres undefined)
 : -3	104	.	36	118	i	0.88
- Cc1nc(Nc2ccc3c(c2)OCCO3)c2nnn(Cc3ccccc3Cl)c2n1
 : -2	102	0.4	7	115	i	0.83

Entries of single compounds, quoted from the list:
`Nc1ccc(CNc2ncn[nH]2)cc1` across the screens: PKD1 inh: .; RGS16-Gao HTS: 101; GALR2 ag: .; INS promoter inh: .; INS promoter inh cell count: .; HSV augment: i; HSV augment primary fold: 0.89
`CN1CCN(c2nc(-c3cccs3)cs2)CC1` across the screens: PKD1 inh: 0; RGS16-Gao HTS: 97; GALR2 ag: .; INS promoter inh: .; INS promoter inh cell count: .; HSV augment: i; HSV augment primary fold: 1.1
`COC(=O)c1ccc(COc2ccccc2/C=C(\C#N)C(=O)Nc2ccc(C)cc2)cc1` across the screens: PKD1 inh: -1; RGS16-Gao HTS: 103; GALR2 ag: -1.8; INS promoter inh: 27; INS promoter inh cell count: 64; HSV augment: i; HSV augment primary fold: 0.77
